Screening data as filed in PubChem.
NS1 function inh: influenza NS1 inhibition; Potency, µM (series often up to 46.1 µM), without a hit: at the top dose activity, positive = more growth; S. cerevisiae slowed by influenza A NS1, growth recovery by OD600; actives 0.4% (n = 270,000); AID 2326; active means well fitted rising curve with a large enough effect; inconclusive means small, poorly fitted or top-dose-only effect; inactive means no such curve, though single readings can be large or run the other way; also: nearly all actives have a fitted effect of over 50% in size
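Growth recovery, yeast-based: influenza A NS1 expressed in S. cerevisiae causes slow growth, and suppressors are detected by OD600. The parent strain without NS1 is used as positive control.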
SARS PLpro yeast: inhibitors of SARS-CoV papain-like protease in yeast; S. cerevisiae expressing SARS-CoV PLpro, growth rescue; control for the full effect not named in the record; Potency, µM (series often up to 32.9 µM), for the others: at the highest dose activity, positive = growth rescue; actives 0.19% (n = 330,000); AID 485353; active means well fitted rising curve with a large enough effect; inconclusive means small, poorly fitted or top-dose-only effect; inactive means no such curve, though single readings can be large or run the other way; also: 0% is about no effect; nearly all actives have a fitted effect of over 55% in size; growth read by luminescence after 48 h
Cruzain inh noDet: inhibitors of Trypanosoma cruzi cruzain without detergent | P25779 | purified cruzain, Z-FR-AMC fluorescence, no detergent | Potency, µM, inactives show max response, negative = inhibition, actives largely listed as inhibitors | actives 2.3% (n = 200,000);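 also: plate controls were enzyme without inhibitor for no effect and buffer without enzyme for full effect; nearly all actives have a fitted effect of over 40% in size; top concentration of the series not given in the record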
Target sequence (P25779 123-467 limits assumed): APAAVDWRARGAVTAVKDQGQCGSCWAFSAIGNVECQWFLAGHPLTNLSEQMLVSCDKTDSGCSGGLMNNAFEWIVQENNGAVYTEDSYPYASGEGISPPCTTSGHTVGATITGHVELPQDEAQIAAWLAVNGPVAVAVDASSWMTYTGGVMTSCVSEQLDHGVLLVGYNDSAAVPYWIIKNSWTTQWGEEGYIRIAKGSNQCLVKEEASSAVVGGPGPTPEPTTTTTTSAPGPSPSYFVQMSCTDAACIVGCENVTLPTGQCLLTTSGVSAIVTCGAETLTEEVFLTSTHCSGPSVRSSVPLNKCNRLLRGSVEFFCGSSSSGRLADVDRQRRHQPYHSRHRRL
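Purified cruzain at 1.5 nM, pre-incubated 15 min with compound at room temperature in 100 mM sodium acetate pH 5.5, 5 mM DTT, 0.00005% Triton X-100. Reaction started with 2 uM Z-FR-AMC; AMC fluorescence increase over 60 s gives rate.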
RE007 growth inh: less growth of the S. pombe RE007 Vpr strain. S. pombe RE007 Vpr strain, BacTiter-Glo ATP luminescence, 24 h; control for the full effect not named in the record. Potency, µM (doses to about 92.2 µM), for inactives: at the top dose activity change, negative = less growth. actives 0.21% (n = 360,000); active = well fitted falling curve with a large enough effect; inconclusive = small, poorly fitted or top-dose-only effect; inactive = no such curve, though single readings can be large or run the other way;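 also: % is scaled to controls: 0 for no effect and ±100 for the full control effect; nearly all actives have a fitted effect of over 50% in size; the assay follows cell death caused by Vpr and the record does not say whether a fall means rescue or toxicity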
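Fission yeast RE007 carrying one integrated HIV-1 vpr copy, seeded at OD 0.01 in PMG+AL medium with 23 nL pinned compound. Grown 24 h at 30 degrees; viability read by BacTiter-Glo luminescence after 5 min.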
2A StopGo: lowers the luciferase signal of an FMDV 2A StopGo reporter. Potency, µM (series often up to 57.9 µM), for the others: top-dose signal change, negative = less light. actives 1.2% (n = 410,000). human cells with a luciferase reporter of 2A StopGo recoding; control for the full effect not named in the record; active = well fitted falling curve with a large enough effect; inconclusive = small, poorly fitted or top-dose-only effect; inactive = no such curve, though single readings can be large or run the other way; tested in HEK293T cells; also: % is scaled to controls: 0 for no effect and ±100 for the full control effect; nearly all actives have a fitted effect of over 45% in size; luciferase light after 4 h
MARV entry inh: blocks Marburg virus binding to or entry into cells; Marburg virus pseudotyped entry inhibition, cell reporter; control for the full effect not named in the record; about a third of the inactives were read at about 46 µM; Potency, µM (top dose mostly 37.8 µM), for the others: top-dose activity change, negative = inhibition, hits mostly inhibitors; actives 1.8% (n = 300,000); AID 540276; active = well fitted inhibition curve with a large enough effect; inconclusive = small, poorly fitted or top-dose-only effect, or effect the other way; inactive = flat fitted curve, though single readings scatter; tested in HEK293 cells; about a fifth of its hits are not listed in these tables; also: % is scaled to controls: 0 for no effect and ±100 for the full control effect; luciferase read-out
Cruzain Triton: cruzain (T. cruzi) inhibition with detergent; Potency, µM, inactives show max response, negative = inhibition, actives largely listed as inhibitors; P25779; purified cruzain, Z-FR-AMC fluorescence, 0.01% Triton; actives 0.43% (n = 200,000);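 also: plate controls were neutral wells for no effect and buffer without enzyme for full effect; nearly all actives have a fitted effect of over 40% in size; top concentration of the series not given in the record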
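Read-out: AMC fluorescence (360 nm excitation, 450 nm emission), four reads over 2 min, first-to-third difference used. Conditions: cruzain 1.5 nM, Z-FR-AMC 2 uM, pH 5.5 acetate, 5 mM DTT, 0.01% Triton X-100.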
LASV entry inh: Lassa virus entry inhibition. Potency, µM (series often up to 37.9 µM), inactives show at the top dose activity change, negative = inhibition, most hits filed as inhibitors. actives 1.2% (n = 300,000). Lassa virus pseudotype entry inhibition, cell reporter; control for the full effect not named in the record; active means well fitted inhibition curve with a large enough effect; inconclusive means small, poorly fitted or top-dose-only effect, or effect the other way; inactive means flat fitted curve, though single readings scatter; tested in HEK293 cells; also: % is scaled to controls: 0 for no effect and ±100 for the full control effect; nearly all actives have a fitted effect of over 50% in size; luciferase read-out
Starred values were filed as active, the others as inactive; ? = inconclusive; / = not tested or not shown; & = joins results of further samples; [ ] = another dose, or the depositor's remark. Unless noted, calls follow the shape of the dose curve; as a rule, active = well fitted curve in the direction sought with a large enough effect; inconclusive = small, poorly fitted or top-dose-only effect, or another doubt; inactive = no such curve, though single readings can be large; an effect the other way counts as inactive or inconclusive. Potency is read from the fitted curve at half-maximal effect.

SMILES | NS1 function inh | SARS PLpro yeast | Cruzain inh noDet | RE007 growth inh | 2A StopGo | MARV entry inh | Cruzain Triton | LASV entry inh
Cc1cc(C(=O)COC(=O)Cc2n[nH]c(=O)c3ccccc23)c(C)n1-c1ccc2c(c1)OCCO2 | -30% | -2% | 16µM* | 11% | ? | 8% | -3.6% | -14%
COc1ccc(-c2oc3ncn4nc(-c5ccccc5O)nc4c3c2-c2ccc(OC)cc2)cc1 | / | / | 5% | / | -1% | / | 1.4% | -1%[46.1 µM]
CN1CCc2c(sc(NC(=O)Cc3ccccc3)c2C#N)C1 | -1% | 1% | / | 1% | -10% | / | / | /
COc1ccc(/C=C2\SC(=S)N(C(C(=O)O)c3ccccc3)C2=O)c(OC)c1 (configuration not stated) | 14% | -1% | / | 1% | 3% | / | / | /
COc1ccc(C(C)NC(=O)Cc2cccs2)cc1 (configuration not stated) | 11% | 1% | / | 6% | 3% | 3% | / | ?
Cc1ccc(NC(=O)C(C)c2ccc(-c3ccccc3)c(F)c2)cc1 (configuration not stated) | 0% | 2% | -12% | 5% | ? | ? | 1.6% | -16%
O=S(=O)(c1ccc(Oc2ccc3oc4ccccc4c3c2)nc1)N1CCCC1 | 3% | -9% | ? | -24% | -6% | -11% | -2.6% | 7%
Cc1ccc(Nc2ccc(C(=O)N3CCCC3)cn2)c(C)c1 | -13% | 9% | -5% | 1% | 40%[activator] | 18% | 0.6% | 9%
CCOc1ccc(Oc2nc(NC)nc(N3CCOCC3)n2)nn1 | / | / | -5% | / | -8% | 11%[46.1 µM] | 0.6% | 24%[46.1 µM]
Cc1ccc(N2CCN(C(=O)C3CCC(CNS(=O)(=O)c4ccc(Br)s4)CC3)CC2C)cc1 (configuration not stated) | / | / | -24% | / | ? | -4%[46.1 µM] | -3.0% | -10%[46.1 µM]
Cc1ccccc1/C(N)=N/O | 28% | 0% | -7% | 12% | 0% | -2% | 0.6% | 17%
COC(=O)c1scc(-c2ccc(C)cc2)c1S(=O)(=O)N1CCN(c2ccc(C)cc2C)CC1 | / | / | ? | / | -11% | / | -2.4% | -5%[46.1 µM]
Cc1ccc2nc(CN3CCN(C(=O)Nc4ccc(F)cc4)CC3)oc2c1 | / | / | 9% | / | -22% | / | -0.9% | -2%[46.1 µM]
Cc1cccc(C(=O)Nc2ccccc2C(=O)NCc2ccco2)c1 | -67% | ? | / | 0% | 3% | 0% | / | 11%
Cc1ccc(C)c(NC(=O)CSc2nnc(NC(=O)C3CC3)s2)c1 | 6% | 0% | / | 4% | -6% | -5% | / | -5%
Cc1ccc(S(=O)(=O)N2CCN(C)CC2)c(C)c1 | 4% | 8% | -7% | -14% | -16% | 0% | 3.4% | 17%
COc1ccc(CC(=O)NCc2ccc(-n3cccc3)cc2)cc1OC | 1% | 0% | / | -9% | ? | ? | / | -18%
CCc1ccc(OCCOCC(O)CN2CCN(Cc3ccc(Cl)cc3)CC2)cc1 (configuration not stated) | -21% | -32% | 1% | 5% | -7% | ? | -1.0% | ?
CC1CCN(S(=O)(=O)c2ccc3c(ccn3CCC(=O)NCc3ccccc3F)c2)CC1 | / | / | -1% | / | 22% | / | -5.8% | -27%[46.1 µM]
COc1ccc(Oc2nc(C)cc(C)c2S(=O)(=O)c2ccc(C)cc2)cc1 | -3% | -2% | -1% | -24% | -19% | -12% | -6.6% | -23%
Cc1cccc(C)c1NC(=O)N1CCC(c2nc3ccccc3o2)CC1 | -7% | 1% | 3% | 5% | -19% | 5% | 1.9% | -11%[14.3 µM]
COc1ccc(OCC(=O)Nc2ccc3c(c2)N(C)C(=O)c2ccccc2S3)cc1 | / | / | 2% | / | ? | / | -2.7% | -12%[46.1 µM]
C(=N\NC1=Nc2cccc3cccc1c23)/c1cccnc1 | / | -3% | / | -1% | 8% | ? | / | /
CCCCN(CCCNC(=O)C1CCCN(S(=O)(=O)CCC)C1)Cc1ccccc1 (configuration not stated) | 1% | 1% | / | -13% | -22% | / | / | /
COc1ccc(CN(C(=O)CN2C(=O)c3ccccc3S2(=O)=O)C(C(=O)NCC2CCCO2)c2ccncc2)cc1 (configuration not stated) | 8% | -22% | 16% | -15% | -8% | -2% | -2.6% | -17%
COc1ccccc1N1CCN(CCCNC(=O)c2cnn(-c3ccccc3Cl)c2C2CCN(C(=O)OC(C)(C)C)CC2)CC1 | / | / | 0% | / | -17% | / | -3.2% | ?
CCOc1ccc(C2C(C#N)=C(N)SC(N)=C2C#N)cc1OC | 12% | 4% | -21% | / | / | / | -18% | /
CC(C)c1ccc(NC(=O)c2cc3c(=O)[nH]c4ccccc4c3n2C)cc1 | / | / | -5% | / | 0% | 6%[46.1 µM] | -1.7% | 9%[46.1 µM]
CCCC(=O)n1nc(-c2cccnc2)nc1NCc1ccccc1 | -11% | -1% | -8% | -4% | -17%&19% | ? | -5.0% | 5%&0%[46.1 µM]
C=CCC1(CN2CCCC2=O)C(=O)NC(=O)NC1=O | 2% | 1% | 7% | 2% | -9% | -19% | 6.7% | -2%
O=C(COc1ccc2ccc(=O)oc2c1)Nc1ccc(N2CCOCC2)cc1 | 7% | 1% | 8% | -1% | -22% | ? | 0.1% | -1%
Cc1ccc(NC(=O)C[n+]2ccccc2)cc1[N+](=O)[O-] | 17% | 0% | -6% | -6% | -4% | 2% | 0.9% | -3%
CCCOc1cccc(C(=O)Nc2ccc(-c3nc4ccccc4o3)cc2)c1 | / | / | 1% | / | -7% | / | 0.5% | -17%[46.1 µM]
Cc1cc2c(c(=O)o1)C(C(C)C)C(C#N)=C(N)O2 (configuration not stated) | -14% | 1% | -6% | -15% | -13% | 1% | 5.0% | 0%
CCn1nc(C)c(CN2CCCCC2C(=O)Nc2ccc(Oc3cccnc3)cc2)c1C (configuration not stated) | -13% | -6% | / | -18% | ? | -29% | / | 4%
Cc1nc(SCC(=O)N2CCc3ccccc3C2)c2c(C)c(C)sc2n1 | -2% | -9% | -3% | 8% | ? | ? | -14% | -11%
Cc1cc(SCC2=NNC(=O)C2)c(Cl)cc1Cl | 1% | 0% | / | -7% | -19% | -2% | / | 13%
Cc1ccccc1Nc1c(-c2cccc(O)c2)nc2ccc(Br)cn12 | / | / | -25% | / | ? | -28%[46.1 µM] | -2.0% | -18%[46.1 µM]
Cc1nnc(NC(=O)CCC(=O)NCc2ccco2)s1 | 3% | 13% | 8% | -5% | -5% | 1% | 3.3% | -13%
CC1Sc2ccc(C(=O)Nc3cc(S(C)(=O)=O)ccc3Cl)cc2NC1=O (configuration not stated) | / | 3% | / | 13% | -2% | -12% | / | -8%
COc1cccc(NC(=O)Cn2c(=O)n(-c3ccccc3)c(=O)c3c4c(sc32)CCCC4)c1 | / | / | 1% | / | 0% | 21%[46.1 µM] | -1.3% | 7%[46.1 µM]
CCC1CCCCN1CCNC(=O)C1CCN(S(=O)(=O)c2c(C)noc2C)CC1 (configuration not stated) | 2% | 8% | 7% | -12% | 5% | 11% | 6.4% | 5%
COc1ccc(C(=O)Nc2c(N)nc(SCC(=O)Nc3ccc(NC(C)=O)cc3)[nH]c2=O)cc1OC | 22µM* | 7% | / | 7% | 3% | 9%[46.1 µM] | / | -8%[46.1 µM]
Fc1ccccc1NC(=S)N1CCN(Cc2ccc3c(c2)OCO3)CC1 | / | -2% | / | -3% | -28% | 17%[46.1 µM] | / | -9%[46.1 µM]
C/C(=N\NC(=O)c1nnn(-c2nonc2N)c1C(C)C)c1ccc2ccccc2c1 | 0% | -4% | / | 9% | 17% | 11%[46.1 µM] | / | 1%[46.1 µM]
COc1ccc(Cl)cc1NC(=O)CN(C)C(=O)C12CC3CC(CC(Cl)(C3)C1)C2 | -4% | -11% | / | 27% | -27% | -1% | / | 20%
CC1=N/C(=C\c2ccc3c(c2)OCO3)C(=O)N1c1ccc(C(=O)O)cc1 | 10% | 19% | -20% | 3% | -27% | 11% | -10% | 14%
S=c1nc(Cc2ccccc2)[nH]c2ccccc12 | 12% | 4% | / | 0% | 23% | 7%[46.1 µM] | / | -2%[46.1 µM]
COc1ccc(N=CC=C2OC(C)(C)C(C)(C)O2)cc1OC | 5% | 1% | / | 2% | -14% | / | / | /
CCOC(=O)N1CCN(c2c(NCCc3ccc(OC)c(OC)c3)c(=O)c2=O)CC1 | 13% | 8% | -10% | 5% | -6% | / | 1.2% | /
Cc1nc2ccc3nc(NC(=O)c4ccco4)sc3c2s1 | -4% | / | / | ? | 36%[activator] | ? | / | 12%
CN1CCN(C2=C(Cl)C(=O)N(c3ccc(Cl)cc3)C2=O)CC1 | 0% | -4% | 25µM* | -3% | / | 11% | ? | 1%
COc1ccc(N2C(=O)[C@@H]3[C@H](C2=O)[C@H]2C=CC=NN2[C@@H]3C(=O)Nc2ccc(Cl)cc2)cc1 | 8% | -3% | / | 1% | -22% | / | / | /
Cc1cc2c(NC(=O)Nc3ccc(C(F)(F)F)cc3)cccc2nn1 | 3% | 1% | / | 6% | 5% | ? | / | -19%
NCC(=O)N1CCC(C(=O)N[C@@H](Cc2c[nH]c3ccccc23)C(=O)O)CC1 | 1% | -1% | / | -13% | -14% | / | / | /
Cc1c(Cl)cccc1NS(=O)(=O)c1ccc(-c2cnc(C3CC3)o2)cc1 | / | / | 12% | / | -17% | / | -7.4% | ?
COc1ccc(C(C(=O)NCC2CCCO2)N(Cc2ccccc2)C(=O)c2snc(C(N)=O)c2N)cc1OC (configuration not stated) | -2% | 4% | / | 12% | 2% | ? | / | 13%[46.1 µM]
Cc1nc(SCc2ccc(C#N)cc2)n[nH]1 | 19% | 2% | / | 0% | 32%[activator] | / | / | /
O=C(CS(=O)(=O)c1cn(Cc2ccc(Cl)cc2)c2ccccc12)N1CCOCC1 | 3% | 8% | ? | 5% | -21% | 15%&15% | -1.4% | 4%
COCCn1c(SCC(=O)Nc2ccccc2)nc2c1c(=O)[nH]c(=O)n2C | ? | -16% | -6% | 0% | -5% | 6% | 1.3% | 0%
